Screens from PubChem.
Ecoli rRNA inh = selective bacterial rRNA inhibition in E. coli; GFP signal change (wild-type ribosome), % (concentration not given with the values); 350,000 compounds, 1.6% hits; E. coli WT GFP vs humanized-ribosome RFP mutants, fluorescence, 24 h; active compounds read low; DMSO median 0, no signal -100;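 active = significant combined selectivity score with lowered wild-type GFP, culture density cut under 30%, mutant RFP and density less affected; inactive = any of these conditions unmet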; note: one replicate is shown; some compounds called inactive have numbers as strong as hits
Ecoli rRNA inh OD600 = recorded beside Ecoli rRNA inh, whose call it bears; OD600 change, %; measured here: OD600 growth;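 optical density of the mix in the first replicate; 0 = DMSO median and -100 = no signal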
Ecoli rRNA inh RFP = second read-out of Ecoli rRNA inh, no call of its own (marks repeat the call); RFP signal change, %; measured here: RFP humanized mutant strains;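 first replicate; 0 = DMSO median and -100 = no signal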
Numbers without * were called inactive; & = joins results of further samples. These rows are one share of the data; rates above refer to the full screens.

# | molecule | Ecoli rRNA inh | Ecoli rRNA inh OD600 | Ecoli rRNA inh RFP
1 | CO[C@H]1CN(C)C(=O)c2ccc(NC(=O)Nc3ccccc3)cc2OC[C@H](C)NC[C@H]1C | 1 | 1 | 0.1
2 | Cc1cccc(S(=O)(=O)N2C[C@@H]3[C@H](c4ccccc42)[C@H](CO)N3C(=O)C2CC2)c1 | -4 | -2 | -2.3
3 | C[C@H]1CN([C@@H](C)CO)C(=O)c2cc(NS(=O)(=O)c3ccccc3)ccc2O[C@H]1CN(C)S(=O)(=O)c1ccc(F)cc1 | -1 | -9 | 1.3
4 | O=C(C[C@@H]1CC[C@@H](NC(=O)Nc2ccccc2)[C@@H](CO)O1)NCc1ccccn1 | 3 | 7 | 1.5
5 | C[C@@H]1CN([C@@H](C)CO)C(=O)Cc2cc(NC(=O)Nc3cccc4ccccc34)ccc2O[C@@H]1CN(C)Cc1ccc(Oc2ccccc2)cc1 | 7 | 1 | 2.2
6 | C[C@H]1CCCCO[C@H](CN(C)C(=O)NC2CCCCC2)[C@@H](C)CN([C@@H](C)CO)C(=O)c2cc(NS(C)(=O)=O)ccc2O1 | -1 | -5 | 3.0
7 | COc1ccc(NC(=O)N(C)C[C@H]2Oc3ccc(NC(=O)Cc4cn(C)c5ccccc45)cc3CC(=O)N([C@H](C)CO)C[C@@H]2C)cc1 | 2 | 5 | 0.0
8 | C=CCN1C(=O)c2n[nH]c(COC)c2C1c1ccc2c(c1)OCO2 (stereo unspecified) | 6 | 6 | 2.4
9 | COc1ccccc1S(=O)(=O)N[C@H]1CC[C@H](CC(=O)NCc2cccc(F)c2)O[C@H]1CO | 0 | -2 | -0.9
10 | O=C(c1ccc(F)cc1)N1CCCCN2[C@@H](CO)[C@H](c3ccc(-c4ccccc4)cc3)[C@@H]2C1 | -2 | -33 | 2.3
11 | O=C(CCNS(=O)(=O)c1ccc(F)cc1)N1CCN(c2ncccn2)CC1 | 5 | 10 | 0.4
12 | COc1ccc(C#Cc2ccc([C@H]3[C@@H](CO)N4CCCCN(C(=O)c5ccncc5)C[C@@H]34)cc2)cc1 | 6 | -32 | 21
13 | C[C@@H]1CCCCO[C@@H](CN(C)C(=O)CCC(F)(F)F)[C@@H](C)CN([C@H](C)CO)C(=O)c2cc(NC(=O)C3CCCCC3)ccc2O1 | 4 | 5 | 3.9
14 | COCC(=O)N1C[C@@H](C)[C@@H](OC)CN(C)C(=O)c2ccc(NC(=O)Nc3cccc(F)c3)cc2OC[C@@H]1C | 1 | -3 | 2.1
15 | CCCN1[C@H](C(=O)OC)[C@@H](CO)[C@@H]2Cn3c(ccc(-c4ccccc4OC)c3=O)[C@@H]21 | 1 | -4 | -3.6

Structures shown so far with sulfur, in the order listed:
# | molecule | Ecoli rRNA inh | Ecoli rRNA inh OD600 | Ecoli rRNA inh RFP
2 | Cc1cccc(S(=O)(=O)N2C[C@@H]3[C@H](c4ccccc42)[C@H](CO)N3C(=O)C2CC2)c1 | -4 | -2 | -2.3
3 | C[C@H]1CN([C@@H](C)CO)C(=O)c2cc(NS(=O)(=O)c3ccccc3)ccc2O[C@H]1CN(C)S(=O)(=O)c1ccc(F)cc1 | -1 | -9 | 1.3
6 | C[C@H]1CCCCO[C@H](CN(C)C(=O)NC2CCCCC2)[C@@H](C)CN([C@@H](C)CO)C(=O)c2cc(NS(C)(=O)=O)ccc2O1 | -1 | -5 | 3.0
9 | COc1ccccc1S(=O)(=O)N[C@H]1CC[C@H](CC(=O)NCc2cccc(F)c2)O[C@H]1CO | 0 | -2 | -0.9
11 | O=C(CCNS(=O)(=O)c1ccc(F)cc1)N1CCN(c2ncccn2)CC1 | 5 | 10 | 0.4

Following part
# | molecule | Ecoli rRNA inh | Ecoli rRNA inh OD600 | Ecoli rRNA inh RFP
16 | CC1(c2nnnn2Cc2ccccc2)CCC(=O)N1CCc1ccc(O)cc1 (stereo unspecified) | 4 | 5 | -0.7
17 | COc1ccc(C#Cc2ccc([C@@H]3[C@@H](CO)N4C(=O)CN(C(C)=O)C[C@@H]34)cc2)cc1 | -2 | 7 | -1.2
18 | C[C@H](CO)N1C[C@H](C)[C@H](CN(C)C(=O)CCCN(C)C)OCCCC[C@H](C)Oc2ccc(NS(=O)(=O)c3cn(C)cn3)cc2C1=O | 2 | 6 | -0.8
19 | Cc1noc(C)c1NC(=O)Nc1ccc2c(c1)C(=O)N([C@H](C)CO)C[C@H](C)[C@@H](CN(C)CC1CCCCC1)OCCCC[C@@H](C)O2 | 4 | 7 | 2.5
20 | C[C@@H]1CN([C@@H](C)CO)C(=O)c2cc(C#Cc3cccnc3)cnc2O[C@H]1CN(C)C | 5 | 2 | -4.3
21 | CC(C)(C)c1ccc(S(=O)(=O)NC(=O)C2(C)CCN2C(=O)Cc2cc(F)ccc2F)cc1 (stereo unspecified) | 3 | 8 | 1.1
22 | C[C@H](CO)N1C[C@H](C)[C@@H](CN(C)S(=O)(=O)c2ccccc2)Oc2ccc(NC(=O)Cc3cn(C)c4ccccc34)cc2C1=O | -1 | 6 | 4.8
23 | C[C@@H]1CN([C@@H](C)CO)C(=O)c2cc(-c3cccc(C#N)c3)cnc2O[C@H]1CN(C)Cc1ccccc1 | -2 | 4 | 0.5
24 | O=C(C[C@H]1CC[C@@H]2[C@H](COC[C@H](O)CN2C(=O)c2ccncc2)O1)NCc1ccc(-c2ccccc2)cc1 | -3 | 7 | -3.8
25 | Cc1cc(C(=O)COc2ccc(Br)cc2F)c(C)n1CC1CCCO1 (stereo unspecified) | 9 | 9 | 3.4
26 | O=C(NCC1CC1)[C@@H]1[C@@H](CO)[C@@H]2Cn3c(cccc3=O)[C@@H]2N1Cc1cncnc1 | 0 | 3 | -2.4
27 | CC(=O)N1C[C@@H]2[C@H](c3ccccc31)[C@H](CO)N2C(=O)c1ccc(F)cc1 | 2 | 5 | -1.5
28 | C[C@@H]1CN([C@H](C)CO)C(=O)c2cc(NC(=O)Nc3ccc(C(F)(F)F)cc3)ccc2O[C@@H](C)CCCCO[C@@H]1CN(C)C(=O)c1ccccc1 | 0 | 7 | -0.5
29 | C[C@H]1CN([C@@H](C)CO)C(=O)CCCn2cc(nn2)CO[C@@H]1CN(C)C(=O)C1CC1 | 7&1 | 7&2 | -0.6&-2.2
30 | CC(C)NC(=O)Nc1ccc2c(c1)CC(=O)N(C)C[C@H](C)[C@@H](CN(C)C)O2 | 0 | 1 | -2.0
31 | CN1c2ccc(C3=CCCCC3)cc2[C@@H]2[C@@H](CCN2C(=O)Nc2cc(F)ccc2F)[C@@H]1CO | -1 | 17 | -2.8
32 | Cc1noc(C)c1NC(=O)Nc1ccc2c(c1)CC(=O)N([C@H](C)CO)C[C@@H](C)[C@@H](CN(C)Cc1ccc(Cl)c(Cl)c1)O2 | -7 | -37 | 5.2
33 | O=C(NCc1ccccc1)[C@H]1CCCN1C(=O)[C@H]1CCCN1C(=O)c1ccc(F)c(C(F)(F)F)c1 | 8 | 2 | 2.8
34 | CC1(C(=O)NS(=O)(=O)Cc2ccccc2C(F)(F)F)CCN1C(=O)C/C=C/c1ccccc1 (stereo unspecified) | -3 | 4 | 1.6
35 | COc1ccccc1NC(=O)N[C@H]1C=C[C@H](CC(=O)N2CCC(Cc3ccccc3)CC2)O[C@H]1CO | -1 | -23 | 27
36 | Cc1ccc(S(=O)(=O)Nc2ccc3c(c2)CC(=O)N([C@@H](C)CO)C[C@H](C)[C@H](CN(C)S(=O)(=O)c2cccs2)O3)cc1 | -1 | -4 | -0.6
37 | Cc1noc(C)c1NC(=O)N(C)C[C@H]1Oc2ccc(NC(=O)NC(C)C)cc2CC(=O)N([C@@H](C)CO)C[C@@H]1C | -1 | 4 | -0.3
38 | COc1ccc(S(=O)(=O)N(C)C[C@H]2Oc3ccc(NC(=O)CCCCCC(=O)Nc4ccccc4N)cc3CC(=O)N([C@H](C)CO)C[C@@H]2C)cc1 | -2 | 3 | 0.1
39 | Cc1noc(C)c1S(=O)(=O)Nc1ccc2c(c1)C(=O)N([C@H](C)CO)C[C@H](C)[C@H](CN(C)Cc1ccc(C(F)(F)F)cc1)OCCCC[C@H](C)O2 | -1 | -14 | 7.1
40 | O=C(NCC1CCCCC1)[C@@H]1N[C@@H]2c3ccc(C4=CCCCC4)c(=O)n3C[C@@H]2[C@H]1CO | -9 | -17 | 2.5
41 | COc1ccc2c3c(n(C)c2c1)[C@@H](CO)N(C(=O)c1cccnc1)CC31CN(C)C1 | 4 | 11 | 0.2
42 | C[C@H](CO)N1C[C@H](C)[C@H](CN(C)S(=O)(=O)c2cccs2)Oc2ccc(NC(=O)Cc3cn(C)c4ccccc34)cc2CC1=O | -1 | -1 | 6.2
43 | C#CCN(C[C@H]1[C@H](OC(=O)Nc2c(C)noc2C)[C@H](OC(=O)Nc2c(C)noc2C)C[C@@H](C(=O)OC)[C@H]1C(=O)OC)S(=O)(=O)c1ccc(C)cc1 | 0 | -6 | 0.9
44 | CNC(=O)C[C@H]1CC[C@H]2[C@@H](COc3ccc(NC(=O)Nc4ccc(Cl)cc4)cc3C(=O)N2C)O1 | 3 | 3 | 1.4
45 | Cc1ccc(S(=O)(=O)N(C)C[C@H]2Oc3c(NC(=O)Nc4ccc(C(F)(F)F)cc4)cccc3C(=O)N([C@@H](C)CO)C[C@@H]2C)cc1 | -5 | -9 | -4.9
46 | C[C@H](CO)N1C[C@H](C)[C@H](CN(C)S(=O)(=O)c2cn(C)cn2)OCCCC[C@H](C)Oc2ccc(NC(=O)Nc3ccccc3)cc2C1=O | -2 | -1 | -3.5
47 | COc1ccc2c3c(n(C)c2c1)[C@H](CO)N(Cc1ccc(Cl)cc1)CC31CN(CC2CC2)C1 | -5 | -4 | -0.3
48 | CCNC(=O)C[C@H]1C=C[C@H](NC(=O)C2CCC2)[C@@H](CO)O1 | 1 | 3 | 0.7
49 | COc1cc(NC(=O)Nc2nnc([C@@H]3C[C@H](O)[C@@H](CO)O3)s2)cc(OC)c1OC | 6 | 19 | 6.6
50 | O=C(Cc1ccccn1)N[C@H]1CC[C@H](CCn2cc(-c3cccnc3)nn2)O[C@@H]1CO | 1 | 9 | -2.6
51 | COc1ccccc1-c1ccc2n(c1=O)C[C@@H]1[C@@H](CO)[C@H](C(=O)Nc3nccs3)N(CC3CC3)[C@H]21 | -5 | -13 | 1.0
52 | CC=Cc1ccc2n(c1=O)C[C@H]1[C@H](CO)[C@@H](C(=O)N3CCC(Cc4ccccc4)CC3)N(CCC)[C@@H]21 (mixture of isomers) | -34 | -65 | 31
53 | O=C(Nc1ccc2c(c1)OCO2)N[C@@H]1CC[C@@H](CCNC(=O)C2CCOCC2)O[C@H]1CO | 3 | 13 | -1.8
54 | C[C@H](CO)N1C[C@H](C)[C@@H](CN(C)Cc2ccc(-c3ccccc3)cc2)Oc2ccc(NC(=O)CCC(F)(F)F)cc2C1=O | -6 | 2 | 10
55 | CC(C)N(C[C@H]1[C@H](c2ccccc2)[C@H](CO)N1S(C)(=O)=O)C(=O)CN(C)C | 0 | 8 | -0.5
56 | C[C@H]1CCCCO[C@H](CN(C)C(=O)Nc2ccc3c(c2)OCO3)[C@@H](C)CN([C@@H](C)CO)C(=O)c2cc(NS(=O)(=O)c3cccs3)ccc2O1 | -1 | -5 | 5.3
57 | C[C@@H]1CN([C@H](C)CO)C(=O)c2cc(NS(=O)(=O)c3ccccc3)ccc2O[C@@H](C)CCCCO[C@@H]1CN(C)Cc1ccc2c(c1)OCO2 | -2 | -18 | 8.6
58 | COc1ccc(CNC(=O)/C=C/[C@H]2O[C@@H](n3cnc4c(NC(=O)c5ccccc5)ncnc43)[C@H](O)[C@@H]2O)cc1 | 2 | 5 | 1.7
59 | C[C@@H]1CCCCO[C@H](CN(C)C(=O)Cc2ccccc2)[C@H](C)CN([C@H](C)CO)C(=O)c2cc(NC(=O)c3ccncc3)ccc2O1 | 0 | -3 | 0.4
60 | CC(=O)N1[C@@H]2Cn3c(ccc(/C=C/c4ccccc4)c3=O)[C@H]1[C@@H](C(=O)NCC1CC1)[C@@H]2CO | 3 | 3 | -0.6
61 | COC(=O)c1cc2c(c3c4cc(C)ccc4n(S(=O)(=O)c4ccc(C)cc4)c13)C(=O)N(Cc1ccccc1)C2 | 7 | 10 | 8.4
62 | COc1cccc(S(=O)(=O)Nc2ccc3c(c2)[C@H]2C[C@@H](CC(=O)NCCc4ccccc4)O[C@H](CO)[C@H]2O3)c1 | -5 | -18 | 2.6
63 | CCNC(=O)[C@H]1[C@H](CO)[C@H]2Cn3c(ccc(C4=CCCCC4)c3=O)[C@H]2N1Cc1ccccc1 | -5 | -16 | 2.9
64 | O=C(Nc1ccc2c(c1)[C@@H]1C[C@@H](CC(=O)N3CCc4ccccc4C3)O[C@@H](CO)[C@@H]1O2)NC1CCCC1 | -12 | -10 | 2.6
65 | CCCNC(=O)[C@@H]1[C@@H](CO)[C@@H]2Cn3c(ccc(-c4ccncc4)c3=O)[C@H]1N2C(=O)CC1CC1 | 3 | 1 | -0.4
66 | CO[C@H]1CN(C)C(=O)c2cc(NC(=O)c3cccc(Oc4ccccc4)c3)ccc2OC[C@@H](C)NC[C@H]1C | -4 | -4 | 19
67 | C[C@H]1CN([C@@H](C)CO)C(=O)c2cc(NC(=O)Nc3cccc4ccccc34)ccc2O[C@H]1CN(C)Cc1ccc(C(F)(F)F)cc1 | 1 | 3 | -0.2
68 | O=[N+]([O-])c1ccc(CN2[C@H](COCc3ccccc3)C=CS2(=O)=O)cc1 | 9 | 13 | 0.1
69 | COc1ccccc1NC(=O)N(C)C[C@H]1OCc2ccccc2-c2c(n(C)c3ccccc23)C(=O)N([C@H](C)CO)C[C@H]1C | 2 | -1 | 3.5
70 | O=C(c1cccc(F)c1)N1C[C@H]2[C@@H](c3ccccc31)[C@H](CO)N2C(=O)C1CCCC1 | 0 | -9 | -2.8
71 | CCNC(=O)C[C@@H]1CC[C@H]2[C@@H](COC[C@@H](O)CN2S(=O)(=O)c2ccc(Oc3ccccc3)cc2)O1 | 4 | -1 | -1.0
72 | CC1=C2CCCC[C@@]23C2C(=O)N(C)C(=O)[C@@H]2ON3OC1 (stereo partly specified) | 6 | 9 | -0.4
